Prx2 Sm inh: Schistosoma Mansoni Peroxiredoxins (Prx2). Schistosoma mansoni peroxiredoxin 2 (Prx2). S. mansoni Prx2 activity coupled to TGR/GSH (TGR is thioredoxin glutathione reductase), NADPH fluorescence loss, qHTS; some inactives read as strong as hits. 65,000 tested, 0.07% active. Potency, µM; active means full or partial inhibition curve with a strong effect at the top dose; inconclusive means weaker partial or single-point curve; inactive means no accepted curve; further: series up to 57 µM; many of its hits are not listed in these tables
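Enzyme mix: 100 uM NADPH, 25 nM TGR, 700 uM GSH, 50 nM Prx2 in 100 mM phosphate pH 7.4, 10 mM EDTA, 0.01% Tween-20. 15 min RT with compound; NADPH/GSH added, H2O2 starts reaction; NADPH fluorescence read 8 min.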
LT uptake inh: qHTS Assay for Anthrax Lethal Toxin Internalization; Cells, anthrax lethal toxin internalization, FRET ratio (460/530); Potency, µM (series often up to 40 µM), inactives show top-dose activity change, negative = inhibition, usual class: inhibitors; 70,000 tested, 0.67% active; active = well fitted falling ratio curve with the 530 nm signal flat; inconclusive = other ratio curves, or a change in one channel alone; inactive = flat curves in the ratio and both channels; the % refers to the ratio; further: on the % scale 0 is the no-effect control and ±100 the full control effect; nearly all actives have a fitted effect of over 50% in size; tested in ME-180 cells; beta-lactamase reporter
An asterisk follows results filed as active; ? = inconclusive; / = no result given; [ ] = dose if it differs, or a comment. Potency means the concentration at half of the fitted maximal effect. A portion of the library; count on the stated rates, not on these rows.

Structure | Prx2 Sm inh | LT uptake inh
CN(CC(=O)NCC1CCCO1)S(=O)(=O)c1cc(Cl)ccc1Cl (centres undefined) | >57 | -20.1%
CC[C@@H](CO)NC(=O)[C@H]1C=C2c3cccc4[nH]cc(c34)C[C@H]2N(C)C1 | >57 | -4.9%
CCCCC(=O)Nc1cccc2c1C(=O)N(c1ccccc1)C2=O | / | -39.5%
O=C(CN1CCN(C(=O)c2cccs2)CC1)NC1CCCCC1 | >57 | -2.5%
COCCCN1C(=O)C(=O)/C(=C(/O)c2ccc(OC(C)C)cc2)C1c1cccnc1 (centres undefined) | >57 | ?
C=CCOc1ccc(Cl)cc1C(=O)O | >57 | -2.5%
c1csc(CN2CCC3(CCNCC3)CC2)n1 | >57 | -6.3%
COc1ccc(N(CC(=O)Nc2cccc(SC)c2)S(C)(=O)=O)cc1Cl | / | ?
C=CCn1c(CC(=O)OC)csc1=Nc1ccc(C(C)=O)cc1 | >57 | -11.4%
Cc1cn2c(nc1=O)OC1C(O)C(COC(=O)c3ccccc3)OC12 (centres undefined) | >57 | -1.6%
COC(=O)c1ccc(CSc2nc3c(c(=O)n2-c2ccc(F)cc2)SCC3)o1 | >57 | -7.5%
CCn1c(=O)cc(SCC(=O)N2CCC3(CC2)OCCO3)c2ccccc21 | >57 | /
NC(=O)c1ccccc1NS(=O)(=O)c1cccs1 | ? | -6.1%
N#Cc1cccc(-c2cncnc2NCc2cccs2)c1 | >57 | -7.1%
Cc1c(NC(=O)CN2C(=O)c3ccccc3S2(=O)=O)c(=O)n(-c2ccccc2)n1C | >57 | -2.4%
COc1ccc(C)cc1NS(=O)(=O)c1cccc2cccnc12 | >57 | -25.1%
Cc1ccc(N(CC(=O)Nc2ccc(C)cn2)S(=O)(=O)c2c(C)nn(C)c2C)cc1 | >57 | 3.1%
C[C@H](C(=O)C=[N+]=[N-])N1C(=O)c2ccccc2C1=O | ? | ?
Nc1c(S(=O)(=O)O)cc(S(=O)(=O)O)c2ccc(N=Nc3ccccc3)c(O)c12 | >57 | -0.2%[8 µM]
O=C(NC1CCCCC1)C1c2ccccc2C(=O)N1Cc1ccco1 (centres undefined) | >57 | /
COC(=O)C1=C(C)NC2=C(C(=O)CCC2)C1c1cccc(C)n1 (centres undefined) | >57 | ?
CCN(CC)S(=O)(=O)c1ccc2oc(C(=O)Nc3ccc(OC)cc3OC)c(C)c2c1 | >57 | -5.5%
NS(=O)(=O)c1ccc(S(=O)(=O)N(Cc2ccccc2F)CC2CCCO2)cc1 (centres undefined) | >57 | 3.9%
O=C(NCCc1ccccc1)c1nc2c(nnn2Cc2ccccc2Cl)c(=O)[nH]1 | >57 | 4.0%
Cc1nc2c([nH]1)C1(CCN(Cc3ccccc3)CC1)C(C#N)=C(N)O2 | >57 | ?
CCC(=O)Nc1ccc(F)c(Cl)c1 | / | -1.1%
O=C(NCc1cccs1)C1CCN(S(=O)(=O)c2ccc(Br)s2)CC1 | >57 | 25.3%
O=S(=O)(c1ccccc1)N1CCN(c2ncnc3sc(-c4ccccc4)cc23)CC1 | >57 | -1.0%
C=CCc1cccc(C2C(C)CCC3C(=O)N4C(Cc5c([nH]c6ccccc56)C4c4cc(OC)c(OC)c(OC)c4)C(=O)N32)c1 (centres undefined) | / | -20.0%[8 µM]
C=CCn1c(SCC(=O)Nc2ccc3c(c2)CCC3)nnc1-c1cccs1 | >57 | -1.8%
CCOC(=O)N1CCC(N2Cc3cccc(C(=O)Nc4cc(F)ccc4F)c3C2=O)CC1 | >57 | -3.1%
CCN(CC)c1cc(Oc2ccccc2)ncn1 | >57 | -12.4%
O=C(COC(=O)CCC(=O)c1cccs1)NCc1ccco1 | >57 | 3.3%
COc1ccc(CCCc2nnc(SCC(=O)Nc3nccs3)n2C)cc1C | >57 | 14.3%
COc1ccc(Oc2ncc3ncc(=O)n(CCc4ccccc4)c3n2)cc1 | >57 | -11.4%
CCN(CC)C(=O)CN(c1ccc(F)c(Cl)c1)S(C)(=O)=O | >57 | 4.1%

Whole records from above. Order of screens: Prx2 Sm inh | LT uptake inh
C=CCn1c(SCC(=O)Nc2ccc3c(c2)CCC3)nnc1-c1cccs1 as listed: >57 | -1.8%
CCN(CC)C(=O)CN(c1ccc(F)c(Cl)c1)S(C)(=O)=O as listed: >57 | 4.1%
COc1ccc(Oc2ncc3ncc(=O)n(CCc4ccccc4)c3n2)cc1 as listed: >57 | -11.4%
Cc1nc2c([nH]1)C1(CCN(Cc3ccccc3)CC1)C(C#N)=C(N)O2 as listed: >57 | ?

Carrying on:
Structure | Prx2 Sm inh | LT uptake inh
COC(=O)c1cc(Br)c(=O)n(CCN2CCCCC2)c1 | >57 | -4.8%
COC(=O)C(NC(=O)C(NC(=O)c1ccccc1)C(C)C)C(C)C (centres undefined) | >57 | 5.0%
CCOc1ccc(N(CC)S(=O)(=O)c2ccc3c(c2)oc(=O)n3C)cc1 | >57 | 10.6%
O=C(NC1CCCc2ccccc21)C1CCN(S(=O)(=O)c2cccc3nonc23)CC1 (centres undefined) | >57 | 1.2%
CCOc1ccc2[nH]c(=O)c(CN(CCN3CCOCC3)Cc3nnnn3C(C)(C)CC)cc2c1 | >57 | 0.8%
CCOC(=O)N1CCN(C(=O)CN(C)S(=O)(=O)c2ccc(OC)c(OC)c2)CC1 | >57 | 6.4%
Cc1nc2oc3c(NCc4ccccn4)ncnc3c2c2c1COC(C)(C)C2 | >57 | 2.5%
CN1CCN(c2ncc3nc(CCc4ccccc4)c(=O)n(CCC#N)c3n2)CC1 | >57 | ?
COc1cc(CNC2CCCCCC2)cc(OC)c1O | / | -9.3%
CSc1ccc2[nH]c(=O)cc(C)c2c1 | >57 | -0.6%
C/C(CC1(O)/C(=N/O)CCc2nonc21)=N\O (centres undefined) | / | -9.1%
CCOC(=O)Nc1ccc(S(=O)(=O)N2CCOCC2)cc1 | >57 | 6.2%
C=Cc1ccccc1C=C | / | -5.9%
Cc1nn(-c2ccccc2)c(Cl)c1C1C(C#N)=C(N)OC2=C1C(=O)CCC2 (centres undefined) | >57 | 3.6%
COC(=O)C1=C(C(=O)c2ccccc2)C(c2ccc(OC)c(OC)c2)Nc2nnnn21 (centres undefined) | >57 | 2.8%
c1ccc2nc3[nH]cnc3nc2c1 | >57 | -1.2%
CCCCCO | / | 3.1%
O=C(O)CC[C@@]1(c2ccccc2)NC(=O)NC1=O | >57 | ?
CCC(CC)C(=O)N1c2ccc(F)cc2CCC1C (centres undefined) | / | -19.5%
Cc1nc2nc(C)c(CCC(=O)N3CCN(c4ccccn4)CC3)c(C)n2n1 | >57 | -21.7%
COc1ccc(C2=NOC(C(=O)N3CCN(c4ccccc4OC)CC3)C2)cc1 (centres undefined) | >57 | ?
Cc1ccc(S(=O)(=O)N2CCC(C(=O)OCC(=O)N3CC(=O)Nc4ccccc43)CC2)cc1 | >57 | -17.6%
CC(C)(C)c1nnc2sc(SCC(=O)c3cccs3)nn2c1=O | >57 | 8.2%
Cc1cc(C(=O)NCc2cccs2)n(-c2ccccc2)n1 | >57 | 1.2%
Cc1c(Cl)cccc1N(CC(=O)O)S(C)(=O)=O | >57 | -2.4%
COc1cc(OC)cc(C(=O)Nn2cc(C(=O)N3CCN(C)CC3)c3ccccc3c2=O)c1 | >57 | 8.2%
CC(C)CC(=O)N(c1ccc(F)cc1)C1C=CS(=O)(=O)C1 (centres undefined) | >57 | -8.6%
CCc1cccc2c(C#N)cn(CC(=O)NCCOC)c12 | >57 | -3.3%
Cn1nnc2cc(C(=O)NCCC3=CCCCC3)ccc21 | >57 | -5.2%
CCCNC(=O)c1c[nH]c2ccc(S(=O)(=O)N(C)c3ccc(OCC)cc3)cc2c1=O | >57 | 0.2%
CCCN(CCC)CCCNC(=O)CC1Nc2ccccc2NC1=O (centres undefined) | >57 | 4.4%
CC(C)CC(=O)Nc1nnn(C)n1 | >57 | -5.3%
O=C(O)CCc1c2ccc(=O)c(O)c-2oc2c(O)c(O)ccc12 | >57 | -25.6%[8 µM]
COc1ccccc1N/C(N)=N/c1nc(CSc2ccc(C)cc2)cc(=O)[nH]1 | >57 | 1.4%
Nc1[nH]nc2nc3ccccc3nc12 | >57 | ?
O=C(c1ccc(Cl)cc1)C12CN3CN(CN(C3)C1)C2 | >57 | 3.0%
O=C(NCCS(=O)CCNC(=O)C(F)(F)F)C(F)(F)F | >57 | -7.6%
O=C(NCC(c1cccnc1)N1CCN(c2ccccc2F)CC1)C1CCCCC1 (centres undefined) | >57 | -3.4%
O=C1CC(c2ccc(S(=O)(=O)NCc3ccncc3)cc2)CN1 (centres undefined) | >57 | -2.9%
CCCCN(c1ccccc1)c1ncnc2c1cnn2C | >57 | -4.4%[8 µM]
O=C(O)c1ccccc1-c1ccccc1C(=O)Nc1ccc2c(c1)Cc1cc(F)ccc1-2 | >57 | 6.7%[8 µM]
Cc1ccc(S(=O)(=O)NC2=NCN(CCc3ccccc3)CN2)cc1 | >57 | 6.6%
Cc1cccc2c(=O)cc(C)n(CC(=O)N3CCCCC3)c12 | >57 | 27.3%
CCCC(=O)Nc1nnc(CC(=O)N2CCCC2)s1 | >57 | 1.2%
Cc1ccc(Cl)c(OCC(=O)Nc2ccc3c(c2)OCCO3)c1 | >57 | 5.0%
COc1ccccc1-n1cnc2cc(NC(C)=O)ccc21 | >57 | -4.1%
Cc1c(C)[n+](=O)c2c(n1[O-])CCCCC2 | >57 | ?
COc1ccc(CNC(=O)NC2CCCCC2)cc1 | >57 | 7.2%
CCOc1ccc(C(=O)NCC(=O)OC(C)C(=O)NCc2ccco2)cc1OCC (centres undefined) | >57 | 26.4%
O=C(CC(C(=O)O)C1CCCO1)NCCc1ccc2c(c1)OCO2 (centres undefined) | >57 | -3.2%
Cc1nc2scc(-c3cccs3)c2c(=O)o1 | / | 0.9%
Cc1ccc2cc3c(NC(=O)c4ccco4)nn(CC(C)C)c3nc2c1 | >57 | ?
Cn1c2ccccc2c2c(C(=O)N3CCN(c4ccc(F)cc4)CC3)cn(C3CCCC3)c(=O)c21 | >57 | -7.1%
Cc1ccc(-n2ncc3c(=O)n(CC(=O)N4CCCCCC4)cnc32)cc1 | >57 | 11.4%
CCc1c(O)nc(SCC(N)=O)n(-c2ccccc2F)c1=O | >57 | -20.9%
CCOC(=O)Cc1nnc(NC(=O)c2ncn[nH]2)s1 | >57 | ?
C=CCOC(=O)COc1ccc2c(C)c(C)c(=O)oc2c1 | >57 | 9.1%
CC(Oc1ccccc1)C(=O)N1CCCc2ccccc21 (centres undefined) | / | -4.2%
O=C(Nc1ccc2c(c1)OCO2)C1CC(c2ccccc2Cl)=NO1 (centres undefined) | >57 | -0.6%
CCCCN(C)C(=O)c1c[nH]c2ccc(S(=O)(=O)N3CCOCC3)cc2c1=O | >57 | 4.7%

Continued:
Structure | Prx2 Sm inh | LT uptake inh
COc1cc(C2=NOC(C(=O)N3CCCc4ccccc43)C2)cc(OC)c1OC (centres undefined) | >57 | -22.4%
COc1ccccc1N1CCN(C(=O)CSc2nc(-c3ccco3)cc(C(F)(F)F)n2)CC1 | / | ?
COc1ccc(-n2c(=O)c(-c3cccc(F)c3)nc3cncnc32)cc1 | >57 | 3.0%
Cc1cc(C)c(C#N)c(N2CCCC2)n1 | >57 | 3.7%
C/C=C/CSc1nc2c(c(=O)[nH]c(=O)n2C)n1CCC | >57 | -9.4%
CC(C)(O)/C=C1/Oc2ccccc2C1N1CCCCC1 (centres undefined) | >57 | -17.8%
Cc1cc(NC(=O)CCC(=O)N(CCc2ccccc2)C(C(=O)NC2CCCC2)c2ccco2)no1 (centres undefined) | >57 | 8.0%
O[C@@H]1CC[C@H]2Cc3ccccc3N=C21 | >25.6 | 18.5%
CCCCC(=O)Nc1cc(C)c2c(=O)oc3ccccc3c2n1 | >57 | -2.9%
CC1(C)CC(=O)C(C=NC(CCC(N)=O)C(=O)O)=C(O)C1 (centres undefined) | >57 | 1.1%
C[C@H](Br)C(=O)Nc1ccc(C(=O)O)c(O)c1 | >57 | 0.0%[8 µM]
Cc1ccc(C)c(NC(=O)CSc2n[nH]c(-c3ccncc3)n2)c1 | >57 | 17.5%
CCOC(=O)C1C(=O)NC(SCC(N)=O)=C(C#N)C1c1ccccc1OCC (centres undefined) | >57 | -11.6%
O=C(c1ccc(OCC2CCCO2)cc1)N1CCN(c2ccccc2)CC1 (centres undefined) | >57 | -7.2%
Cc1ccc(NCc2nnc(SCC(=O)NCc3ccco3)n2CC2CCCO2)c(C)c1 (centres undefined) | >57 | -11.1%
CN(C)c1ncc2ncc(=O)n(Cc3ccc(F)cc3)c2n1 | >57 | -7.4%
CCn1c(SCC(=O)N2CCOCC2)nc(O)cc1=O | >57 | -5.2%
C=CCn1c(SCC(=O)NC2CCCCC2)nnc1-c1sc(N)nc1C | >57 | -10.0%
N#CC1=C(N)Oc2cc(N)ccc2C1C1CCCCC1 (centres undefined) | >57 | -26.3%
COc1cc(-c2nc(-c3ccc(C)nc3OC)no2)cc(OC)c1OC | >57 | -4.5%
O=C(Nc1ccc(-c2nc3ccccc3o2)c(O)c1)c1cc(-n2cnnc2)ccc1Cl | >57 | -15.1%
O=C(Cn1c(=O)n(Cc2ccco2)c(=O)c2cc(Cl)ccc21)NCC1CCCO1 (centres undefined) | >57 | -0.6%

High-throughput results deposited in PubChem BioAssay by National Center for Advancing Translational Sciences (NCATS).
